West Nile virus CPE: inhibition of WNV-induced cytopathic effect – cell-based, CPE readout (AID 1621). West Nile virus-infected cells, CPE inhibition; higher % means a stronger effect. 290,000 tested, 0.02% active. one-dose CPE inhibition, % at 10 µM; IC50 in µM for titrated hits; in the data active = a potency from the dose series; note: strong numbers were not always called active
HIV fusion peptide: inhibitors of HIV fusion peptide binding, primary screen, biochemical, uHTS, fluorescence dequenching (AID 1986); cell-free peptide binding, fluorescence dequenching, 30 min; higher % means a stronger effect; inhibition, % at 20 µM; hits with a dose series show IC50 in µM; 290,000 tested, 0.3% active; in the data active = inhibition mostly above about 52%, no sharp cut-off; inactive = mostly below about 76%; note: some results filed as inactive read as strong as hits
Yfh1-off respiration: mitochondrial function rescue without frataxin homolog – Friedreich's ataxia, plus single-dose screen, dose response (AID 1465); one-dose fold induction at 50 µM; EC50 in µM for titrated hits; S. cerevisiae Yfh1-off respiration, WST-1 reduction, 72 h; higher fold induction means a stronger effect; 220,000 tested, 0.074% active;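 active = fold induction of absorbance versus untreated yeast above a set limit, then at least 30% activation at any dose in follow-up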;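 note: activators that raise dye reduction in frataxin-depleted yeast; strong numbers were not always called active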
AID2073: disruptors of CaV2.2 binding to Mint1 – biochemical, HTRF (AID 2073). HTRF protein-protein interaction, Mint1-CaV2.2; higher % means a stronger effect. inhibition, % at 20 µM; hits with a dose series show IC50 in µM. 290,000 tested, 0.19% active; in the data active = inhibition mostly above about 51%, no sharp cut-off; note: some results filed as inactive read as strong as hits
KOR agonists: kappa opioid receptor activators – cell-based, luminescence, uHTS, primary screen (AID 1777); KOR beta-arrestin recruitment, luminescence; higher % means a stronger effect; activation, % at 10 µM, or EC50 in µM where a hit was titrated; 280,000 tested, 0.02% active; in the data active = activation above about 50%, passing the limit was not always enough; note: a part of the inactive calls stands beside numbers as strong as those of hits
Dengue-2 NS5 capping: flavivirus cap methylation enzyme inhibition – biochemical, confirmation dose response, primary screen (AID 588689); Dengue-2 NS5 methyltransferase capping enzyme assay, biochemical; higher % means a stronger effect; inhibition, % at 25 µM, or IC50 in µM where a hit was titrated; 340,000 tested, 0.3% active; in the data active = a potency from the dose series
Dengue-2 NS5 capping pilot replicate: recorded beside Dengue-2 NS5 capping, whose call it bears; inhibition, %; measured here: pilot screen replicate inhibition
Numbers without * were called inactive; i = inactive; x = not tested or not shown. A portion of the library, so the mix of outcomes need not match the whole.

SMILES	West Nile virus CPE	HIV fusion peptide	Yfh1-off respiration	AID2073	KOR agonists	Dengue-2 NS5 capping	others
COc1cc2[nH]c(=O)n(CCC(=O)N3CCC(N4CCCCC4)CC3)c(=O)c2cc1OC	0.6%	0.5%	i	4%	-0.4%	4%
CC(C)COC(=O)Nc1nnc(SCCOc2ccccc2)s1	-0.1%	-1.4%	i	5%	7.2%	-12%
Cc1c(OCC(=O)OC(C)C)ccc2c3c(c(=O)oc12)CCC3	0.0%	-2.3%	i	3%	-3.6%	4%
Cn1c(Nn2cnnc2)nc2ccccc21	0.4%	4.1%	i	18%	0.9%	1%
Cc1ccc(/C=N\NC(=O)C2COc3cc4ccccc4cc3O2)o1 (stereo unspecified)	-0.2%	-4.0%	i	2%	2.4%	-7%
COc1ccc(NC(=O)CN2C(=O)c3cccc4cccc2c34)c(OC)c1	-0.1%	1.3%	i	5%	0.8%	9%
CCOc1ccccc1N1CN(CC)CNC1=S	1.1%	-1.4%	i	-8%	3.8%	1%
CC(=O)Oc1c(S(=O)(=O)c2ccc(C)cc2)c(C)nn1C(C)(C)C	-0.4%	1.7%	i	1%	4.0%	-4%
COc1c(F)c(F)c(C(=O)O)c(Nc2ccccc2C)c1F	x	-1.5%	x	6%	0.3%	-5%
CCOc1ccccc1NC(=O)CCn1c(=O)oc2ccccc21	-0.4%	0.9%	i	25%	4.1%	-6%
CCn1c(C)[n+](CCCS(=O)(=O)[O-])c2cc(Cl)c(Cl)cc21	0.6%	-4.4%	i	-10%	1.3%	40%
Cc1nc(-c2cccnc2)sc1C(=O)Nc1ccc(Cl)cc1	0.0%	-1.5%	i	3%	0.5%	-1%
N/C(Cc1ccc([N+](=O)[O-])cc1)=N\OC(=O)COc1cccc2ccccc12	0.4%	-1.6%	i	-7%	-0.5%	-13%
Cc1ccc2c(c1)N(CCC(=O)NCCCOC(C)C)C(=O)C(C)O2 (stereo unspecified)	-0.1%	-1.1%	i	10%	6.1%	-3%
COc1ccc(-c2cccc(C(=O)Nc3ccc(OC)c(OC)c3)c2)cc1	-0.4%	-3.7%	i	10%	2.5%	4%
CN(Cc1cc2ccccc2[nH]c1=O)S(C)(=O)=O	-0.3%	-0.2%	i	-8%	-2.9%	5%
CC(CC(=O)NC1CCCC1)c1ccccc1 (stereo unspecified)	0.2%	1.7%	i	-2%	1.1%	-5%
Cc1nc2ncnn2c(C)c1CCC(=O)NC(C)c1ccc2c(c1)OCCO2 (stereo unspecified)	-0.1%	1.0%	i	-1%	3.7%	5%	Dengue-2 NS5 capping pilot replicate=-1.8
Cc1ccc(OCC(=O)Nc2ccccc2N2CCOCC2)c(C)c1	-0.4%	1.4%	i	14%	4.6%	2%
O=C(O)C1C2C=CC(O2)C1C(=O)NC1CCCc2ccccc21 (stereo unspecified)	0.5%	2.2%	i	2%	14%	-8%
CCOC(=O)c1c(C)[nH]c(C(=O)CSc2nnc(-c3cccs3)n2Cc2ccccc2)c1C	-0.8%	-0.9%	i	-8%	-1.6%	3%
O=S(=O)(c1cc(-c2nc3ccccc3s2)ccc1Cl)N1CCOCC1	0.2%	0.4%	i	1%	-3.9%	x
Cc1ccc(/C=C2/NC(=O)N(Cc3ccccc3)C2=O)s1	x	37%	i	-4%	-3.7%	-25%
C=CCn1cnc2scc(-c3ccccc3)c2c1=O	0.3%	0.2%	i	-8%	-2.4%	6%
Cc1ccc(C(=O)N2CCN(C3c4cccc5cccc(c45)C3NS(=O)(=O)c3ccccc3)CC2)cc1 (stereo unspecified)	-0.6%	0.4%	i	-2%	-2.3%	3%
Brc1ccc(N=C/C=C/C=C/Nc2ccc(Br)cc2)cc1	0.3%	-2.4%	i	-1%	2.1%	-5%
CSc1ccc(CCNC(=O)CSc2ccsc2[N+](=O)[O-])cc1	-0.2%	-1.4%	i	0%	1.5%	4%
O=C1c2ccccc2C(=O)N1Nc1ccccc1	x	-2.5%	x	5%	2.4%	-1%
COc1ccc(C(=S)N(C)C)cc1OC	0.3%	0.4%	i	-23%	-1.9%	-8%
COC(=O)c1ccc(-n2cncn2)c(F)c1	0.3%	-2.8%	i	-1%	9.7%	2%

Overlap with the part before: 2 compounds; new compounds follow.
SMILES	West Nile virus CPE	HIV fusion peptide	Yfh1-off respiration	AID2073	KOR agonists	Dengue-2 NS5 capping	others
COc1ccc(C(=S)N(C)C)cc1OC	0.3%	0.4%	i	-23%	-1.9%	-8%
COC(=O)c1ccc(-n2cncn2)c(F)c1	0.3%	-2.8%	i	-1%	9.7%	2%
COc1ccc(S(=O)(=O)N2CCN(CC(=O)Nc3cc(C(F)(F)F)ccc3Cl)CC2)cc1	0.0%	0.2%	i	8%	0.8%	-3%
CCCc1cc(=O)oc2cc(OCc3nn[nH]n3)ccc12	0.5%	1.2%	i	8%	1.9%	-5%
Brc1ccc(CSc2nccn2-c2ccccc2)cc1	-0.1%	2.7%	i	5%	3.7%	-11%
Cc1c(Cl)cccc1N1C(=O)C(N2C(=O)c3cccc([N+](=O)[O-])c3C2=O)C1c1cccs1 (stereo unspecified)	-0.6%	-0.6%	i	-4%	-2.5%	-1%
COc1ccc2sc3c(=O)[nH]c4ccccc4c3c2c1	0.9%	1.0%	i	14%	2.8%	8%
Cc1nc2sc3c(c2c(=N)n1N)CC(C)(C)OC3	0.6%	-2.3%	i	8%	-0.6%	-12%
Cc1cc2nc(C3CCN(Cc4nnnn4Cc4ccccc4)CC3)[nH]c2cc1C	-0.1%	1.0%	i	-1%	24%	-1%
Cc1ccc(C(=O)NCC(=O)NCC(=O)OCC(=O)c2ccc([N+](=O)[O-])cc2)cc1	-0.1%	-3.8%	i	-33%	3.8%	1%
CCCCN1C(=O)CC(Sc2ccccc2C(=O)O)C1=O (stereo unspecified)	0.4%	0.2%	i	-2%	1.0%	-4%
O=C(NC(Cc1c[nH]c2ccccc12)c1nnc2n1CCCCC2)c1cccs1 (stereo unspecified)	-0.5%	1.0%	i	-6%	-4.3%	3%
CCCC(=O)N(c1ccc(F)cc1)C1C=CS(=O)(=O)C1 (stereo unspecified)	0.2%	-0.2%	i	-2%	6.3%	-1%
CCOC(=O)CN1CC23C=CC(O2)C(C(=O)NC2CCCCC2)C3C1=O (stereo unspecified)	-0.1%	0.0%	i	7%	-1.3%	-5%
CCOC(=O)NC(CC(=O)O)c1ccc(OCC)cc1 (stereo unspecified)	0.0%	0.7%	i	-2%	-0.4%	7%
COC(=O)C1=C(C(=O)OC)C(c2cc(Cl)ccc2O)c2sc(=O)[nH]c2S1 (stereo unspecified)	0.9%	22%	i	11%	-0.6%	>100µM*

As a short view, some entries already given.
SMILES	West Nile virus CPE	HIV fusion peptide	Yfh1-off respiration	AID2073	KOR agonists	Dengue-2 NS5 capping	others
C=CCn1cnc2scc(-c3ccccc3)c2c1=O	0.3%	0.2%	i	-8%	-2.4%	6%
Cc1ccc(C(=O)N2CCN(C3c4cccc5cccc(c45)C3NS(=O)(=O)c3ccccc3)CC2)cc1 (stereo unspecified)	-0.6%	0.4%	i	-2%	-2.3%	3%
Brc1ccc(N=C/C=C/C=C/Nc2ccc(Br)cc2)cc1	0.3%	-2.4%	i	-1%	2.1%	-5%
CSc1ccc(CCNC(=O)CSc2ccsc2[N+](=O)[O-])cc1	-0.2%	-1.4%	i	0%	1.5%	4%
O=C1c2ccccc2C(=O)N1Nc1ccccc1	x	-2.5%	x	5%	2.4%	-1%
COc1ccc(C(=S)N(C)C)cc1OC	0.3%	0.4%	i	-23%	-1.9%	-8%
COC(=O)c1ccc(-n2cncn2)c(F)c1	0.3%	-2.8%	i	-1%	9.7%	2%
COc1ccc(S(=O)(=O)N2CCN(CC(=O)Nc3cc(C(F)(F)F)ccc3Cl)CC2)cc1	0.0%	0.2%	i	8%	0.8%	-3%
CCCc1cc(=O)oc2cc(OCc3nn[nH]n3)ccc12	0.5%	1.2%	i	8%	1.9%	-5%
Brc1ccc(CSc2nccn2-c2ccccc2)cc1	-0.1%	2.7%	i	5%	3.7%	-11%
Cc1c(Cl)cccc1N1C(=O)C(N2C(=O)c3cccc([N+](=O)[O-])c3C2=O)C1c1cccs1 (stereo unspecified)	-0.6%	-0.6%	i	-4%	-2.5%	-1%
COc1ccc2sc3c(=O)[nH]c4ccccc4c3c2c1	0.9%	1.0%	i	14%	2.8%	8%
Cc1nc2sc3c(c2c(=N)n1N)CC(C)(C)OC3	0.6%	-2.3%	i	8%	-0.6%	-12%
Cc1cc2nc(C3CCN(Cc4nnnn4Cc4ccccc4)CC3)[nH]c2cc1C	-0.1%	1.0%	i	-1%	24%	-1%
Cc1ccc(C(=O)NCC(=O)NCC(=O)OCC(=O)c2ccc([N+](=O)[O-])cc2)cc1	-0.1%	-3.8%	i	-33%	3.8%	1%
CCCCN1C(=O)CC(Sc2ccccc2C(=O)O)C1=O (stereo unspecified)	0.4%	0.2%	i	-2%	1.0%	-4%
O=C(NC(Cc1c[nH]c2ccccc12)c1nnc2n1CCCCC2)c1cccs1 (stereo unspecified)	-0.5%	1.0%	i	-6%	-4.3%	3%
CCCC(=O)N(c1ccc(F)cc1)C1C=CS(=O)(=O)C1 (stereo unspecified)	0.2%	-0.2%	i	-2%	6.3%	-1%

High-throughput results: PubChem BioAssay, several laboratories
